Source: PubChem (several laboratories)
HNF4A DNA FP = change in binding of human HNF4A to DNA, primary screen, biochemical, fluorescence polarization, FITC-DNA; Hepatocyte nuclear factor 4-alpha (Homo sapiens), P41235; 1 h; activity change, % at 10 µM; actives 0.3% (n = 360,000); AID 1224865, 2016; in the data active means activity change above about 30%, passing the limit was not always enough;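 further: controls were the assay level and a saturating level of protein; the project sought stronger binding though the title names inhibitors; some compounds called inactive have numbers as strong as hits; positive values seem to mean higher polarization but the record does not say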
MLL AF4-AF9 inh = inhibitors of AF4 peptide binding to AF9, primary screen, biochemical, AlphaScreen, biotin-AF4 peptide, FLAG-AF9, single point. Protein AF-9 (Homo sapiens), P42568. inhibition, % at 10 µM. actives 0.47% (n = 350,000);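 active means every replicate reaching a set inhibition limit, whatever the replicate mean, cut at about 25% in these data; inconclusive means mean inhibition reaches that limit but some replicates miss it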;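 further: 0% = plate neutral control median and 100% = total signal loss; the record names both 10 and 1 µM as test concentration; the first replicate is given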
Target sequence (P42568 whole entry, looked up): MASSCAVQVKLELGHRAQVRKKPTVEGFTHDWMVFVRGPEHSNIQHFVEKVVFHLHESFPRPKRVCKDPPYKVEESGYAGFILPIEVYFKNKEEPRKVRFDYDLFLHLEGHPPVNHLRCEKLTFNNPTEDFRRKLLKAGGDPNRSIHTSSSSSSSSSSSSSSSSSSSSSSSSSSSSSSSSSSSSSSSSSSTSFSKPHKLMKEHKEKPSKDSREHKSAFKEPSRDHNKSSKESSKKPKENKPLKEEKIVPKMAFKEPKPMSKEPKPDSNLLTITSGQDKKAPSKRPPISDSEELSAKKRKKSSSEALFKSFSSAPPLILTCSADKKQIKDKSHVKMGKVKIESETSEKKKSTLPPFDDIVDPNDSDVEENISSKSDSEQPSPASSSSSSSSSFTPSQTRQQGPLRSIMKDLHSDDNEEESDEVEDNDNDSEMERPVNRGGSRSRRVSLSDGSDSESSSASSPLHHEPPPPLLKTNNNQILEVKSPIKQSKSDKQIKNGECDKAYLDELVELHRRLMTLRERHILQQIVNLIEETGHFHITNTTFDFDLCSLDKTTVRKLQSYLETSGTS
Vif A3G = inhibitors of Vif binding to APOBEC3G peptide, primary screen, biochemical, TR-FRET, GST-Vif 1-94, biotin-A3G peptide, dose response retest (AID 1117319); Virion infectivity factor (Human immunodeficiency virus type 1 group M subtype B (isolate …; TR-FRET GST-Vif / biotin-A3G peptide binding; higher % means a stronger effect; test concentration not given here; strong numbers were not always called active; inhibition, %, or IC50 in µM where a hit was titrated; actives 0.57% (n = 260,000);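 active means above the screen mean plus three standard deviations and confirmed in dose response; inconclusive means results disagree or hit not tested in dose response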;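 further: Vif residues 1-94 fused to GST binding biotinylated APOBEC3G peptide 110-148; 0% = full assay without inhibitor and 100% = GST in place of GST-Vif; retest series ran down from 100 µM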
Ecoli growth = E. coli growth inhibition, primary screen, OD600; Escherichia coli growth, 23 h; hits give low values; OD600 absorbance (test concentration not listed); actives 0.21% (n = 330,000); AID 1053175, 2014;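 active means OD600 absorbance below the run mean of sample wells minus 3.6 SD, in any replicate, cut at about 0.56 in these data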;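 further: stock transfer was 300 nL into about 60 µL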
FGF22 binding = binders of human FGF22 protein, primary screen, FGF22 synaptogenesis inhibitor project, biophysical, thermal shift, single point | Fibroblast growth factor 22 (Homo sapiens), Q9HCT0 | recombinant FGF22 thermal shift, SYPRO orange fluorescence; percent of sucrose octasulfate shift, DMSO zero | calls only at 9.99 µM | actives 1.5% (n = 340,000) | AID 651658, 2012;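 active means melting point raised past a set limit in the mean and every replicate; inconclusive means no clear call; three in four hits are not shown here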
Target sequence (Q9HCT0 whole entry, looked up): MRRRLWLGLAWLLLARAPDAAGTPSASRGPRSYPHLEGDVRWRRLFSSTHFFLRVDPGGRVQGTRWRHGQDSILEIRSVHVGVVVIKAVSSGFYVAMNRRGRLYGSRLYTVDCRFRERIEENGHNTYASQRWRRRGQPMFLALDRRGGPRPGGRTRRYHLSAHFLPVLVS
RanGTP-Impb inh = inhibitors of RanGTP-importin-beta interaction, primary screen, biochemical, FRET, CFP-Ran, YFP-importin-beta, homogeneous; Ran GTPase (GTP-bound) - importin-beta complex; cell-free CFP-Ran/YFP-importin-beta FRET ratio; inhibition, % (no concentration beside the values); actives 1.1% (n = 300,000); AID 2216, 2009;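 active means most replicates above 15%; inconclusive means exactly half above 15%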;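 further: 0% = DMSO wells and 100% = Ran loaded with GDP instead of GTP; wells of about 40 µL received 100 nL stock; the first replicate is given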
UCH37 inh = inhibitors of human UCH37 deubiquitinase, primary screen, biochemical, Ub-AMC cleavage, fluorescence | Ubiquitin carboxyl-terminal hydrolase isozyme L5 (Homo sapiens), Q9Y5K5 | purified proteasome/UCH37 | inhibition, % (test concentration not listed) | actives 0.33% (n = 330,000) | AID 588478, 2011;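 active means mean of two replicates above 20%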;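 further: 0% = compound-free wells with enzyme and 100% = wells lacking proteasome; stock transfer was 100 nL into about 20 µL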
Target sequence (Q9Y5K5 whole entry, looked up): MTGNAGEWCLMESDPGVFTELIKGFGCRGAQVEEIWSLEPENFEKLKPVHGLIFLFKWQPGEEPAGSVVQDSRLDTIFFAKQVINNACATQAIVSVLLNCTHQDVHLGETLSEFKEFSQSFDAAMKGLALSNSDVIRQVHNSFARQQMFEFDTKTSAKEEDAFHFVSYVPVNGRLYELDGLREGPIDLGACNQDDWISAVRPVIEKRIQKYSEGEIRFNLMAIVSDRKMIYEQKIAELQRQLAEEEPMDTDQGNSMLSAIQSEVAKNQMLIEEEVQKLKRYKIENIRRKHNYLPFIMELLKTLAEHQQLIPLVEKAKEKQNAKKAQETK
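Signal – fluorescence, ex 355 nm, em 460 nm · System – Proteasome-bound UCH37 · Input – 0.15 nM proteasome as dispensed · Timing – 30 min preincubation with enzyme, 25 min cleavage at room temperature · Read-out basis – percent inhibition of cleavage signal versus uninhibited and no-proteasome wells · Medium – Tris-HCl pH 7.4 with ATP-MgCl2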
* = called active by the depositor; i = inactive; ? = inconclusive; · = no result given.

Every second line gives: HNF4A DNA FP	MLL AF4-AF9 inh	Vif A3G	Ecoli growth	FGF22 binding	RanGTP-Impb inh	UCH37 inh
- COc1cc(NC(=O)c2ccc(-c3ccnn3C)c3ccoc23)cc(OC)c1OC
  -0.8	-2.4	·	·	i	·	·
- Cc1ccc(-c2ccc(CCC(=O)O)n2CC(=O)O)cc1
  -12	·	20%	0.7	·	5.6	-11
- CCOC(=O)c1sc2ncn(C(CC)C(=O)OC)c(=O)c2c1C (stereo unspecified)
  0.3	·	0%	0.7	·	-1.6	-0.7
- COc1ccc(OC)c(NC(=O)COC(=O)/C=C/c2c(C)nn(C3CCS(=O)(=O)C3)c2Cl)c1 (stereo unspecified)
  -0.4	·	3%	0.77	·	?	2.6
- COc1ccc(C)cc1S(=O)(=O)N1CCN(S(=O)(=O)c2cc(C(=O)O)ccc2C)CC1
  -0.9	-2.2	15%	0.65	i	0.2	6.1
- C=CCn1c(SCC(=O)Nc2cccnc2Cl)nnc1-c1ccccc1F
  -3.8	·	5%	0.69	·	2.5	3.2
- O=C(NCCOC12CC3CC(CC(C3)C1)C2)c1cccc(Br)c1
  2.9	·	-4%	0.62	·	0.0	-2.2
- O=C(NCc1ccc(F)cc1)C1CCCN(S(=O)(=O)c2cccc3nonc23)C1 (stereo unspecified)
  3.3	-0.3	·	0.61	i	4.0	0.8
- Cc1ccc2c(c1)C1CN(C)CCC1N2S(=O)(=O)c1cccc(C(F)(F)F)c1 (stereo unspecified)
  -1.3	3.7	·	0.7	i	·	2.2
- COc1cccc(/C=N\NS(=O)(=O)c2ccccc2)c1OC
  0.0	0.6	-2%	·	i	-0.5	·
- COC(=O)c1cccc(CN2C(=O)C(C)Sc3ccc(C#N)cc32)c1 (stereo unspecified)
  5.7	-2.1	·	·	i	·	·
- CS(=O)(=O)N1CCCC(C(=O)c2cccc(Cl)c2)C1 (stereo unspecified)
  2.7	0.7	-4%	0.68	i	-0.8	0.3
- COc1ccccc1NC(c1cccnc1)c1ccc2cccnc2c1O (stereo unspecified)
  -0.5	48*	·	0.74	i	-3.7	6.9
- COc1ccc(N2CCN(C(=O)CCNC(=O)c3ccccc3)CC2)cc1
  1.0	-0.2	-3%	0.67	i	-0.8	3.6
- COc1cccc(C(C(=O)NC2CCCC2)N(CCC(C)C)C(=O)CCC(=O)Nc2cc(C)on2)c1 (stereo unspecified)
  -1.1	1.8	·	0.72	i	-4.5	2.3
- CN1CCN(c2ccc(S(=O)(=O)N3CCOCC3)cc2NC(=O)CC(C)(C)C)CC1
  0.0	1.1	4%	0.69	i	·	2.5
- C=CCOc1c(Br)cc(CNn2c(C)n[nH]c2=S)cc1OC
  4.1	-8.6	·	0.63	i	1.8	1.0
- O=C(COC(=O)CNC(=O)c1ccco1)NCc1ccc(F)cc1
  1.0	0.7	3%	0.68	i	0.8	2.7
- C#CCN(C[C@H]1[C@H](OC(=O)NCc2ccccc2)[C@H](OC(=O)NCc2ccccc2)C[C@@H](C(=O)OC)[C@H]1C(=O)OC)S(=O)(=O)c1ccc(C)cc1
  0.9	0.3	2%	·	i	·	·
- COc1ccc(NC(=O)CN(c2ccccc2)S(=O)(=O)N(C)C)cc1Cl
  0.1	-0.9	3%	0.7	i	1.0	1.3
- Cn1c(N)c(C(=O)COC(=O)c2cc(S(=O)(=O)NCc3ccccc3)ccc2O)c(=O)n(C)c1=O
  -0.2	0.9	·	0.69	i	·	2.4
- CCN(CC)/C(N)=N/c1nc(C)cc(C)n1
  6.7	1.0	12%	0.71	i	-2.0	-1.3
- Cc1ccc2c(c1)N(S(=O)(=O)c1ccc(F)cc1)C(C(C)(C)C)CO2 (stereo unspecified)
  1.1	·	9%	0.72	·	-5.8	4.7
- CCC(C)Sc1ccc([C@H]2N[C@@](Cc3ccccc3)(C(=O)OC)[C@H]3C(=O)N(CC)C(=O)[C@@H]23)cc1OC (stereo partly specified)
  -2.2	5.5	·	·	i	1.0	1.1
- Cc1ccc(C)c(N2CCN(C(C(=O)NC3CCCC3)c3ccco3)CC2)c1 (stereo unspecified)
  -4.7	3.0	·	·	i	·	·
- COc1ccc2c(c1)c(CC(=O)Nc1cccc(S(N)(=O)=O)c1)c(C)n2C(=O)c1ccc(Cl)cc1
  0.3	2.4	17%	0.66	i	1.3	3.0
- CC1Cc2ccccc2N1CC(=O)Nc1cc(S(=O)(=O)N2CCOCC2)ccc1Cl (stereo unspecified)
  2.3	-6.9	-8%	·	·	·	·
- COCCn1c(=S)[nH]c2cc(C(=O)NC3CCCC(C)C3C)ccc2c1=O (stereo unspecified)
  2.3	0.9	1%	·	·	·	·
- C=CCC(NC(=O)Cc1ccccc1)C(=O)NCCC (stereo unspecified)
  -0.6	-3.1	·	0.79	i	·	5.3
- COc1ccc(/C=C/C(=O)NC(=S)NNC(=O)c2cc(OC)c(OC)c(OC)c2)cc1
  0.7	-4.9	8%	0.7	i	0.5	5.2

Further compounds:
Every second line gives: HNF4A DNA FP	MLL AF4-AF9 inh	Vif A3G	Ecoli growth	FGF22 binding	RanGTP-Impb inh	UCH37 inh
- O=C(CN1C(=O)CCSc2ccc(S(=O)(=O)N3CCOCC3)cc21)Nc1ccccc1Cl
  6.4	-6.8	·	0.63	i	-0.6	2.4
- CCn1cc(CNC(=O)CCSc2nc(-c3ccco3)cc(C(F)(F)F)n2)cn1
  ·	·	6%	0.69	·	0.6	4.6
- Cc1cc(NC(=O)CSc2nc3c(sc4ccccc43)c(=O)n2CCc2ccccc2)n[nH]1
  3.8	·	?	0.72	·	-1.5	-8.1
- CCN(CC)S(=O)(=O)c1ccc(OC)c(NS(=O)(=O)Cc2ccccc2)c1
  4.0	-7.8	·	0.67	i	2.3	0.5
- CSCCC(NS(=O)(=O)c1ccc2c(c1)oc(=O)n2C)C(=O)NCc1ccc(C)cc1 (stereo unspecified)
  -1.1	-1.8	1%	0.74	i	8.5	4.5
- CCSc1nc(-c2cccs2)nc2ccccc12
  -5.6	-2.3	-14%	0.65	i	0.6	-1.7
- C[C@@H](NC(=O)c1nc[nH]c1C(=O)N1CCN(c2ccccc2)CC1)c1ccccc1
  -1.3	2.1	·	·	i	·	1.8
- Cc1cccc(C)c1-n1nnnc1C(c1ccnc2ccccc12)N(CCC#N)Cc1ccccc1 (stereo unspecified)
  -1.2	-1.0	·	·	i	·	·
- NS(=O)(=O)c1ccc(CNC(=O)CSc2nc3ccc(Cl)cc3[nH]2)cc1
  -5.7	5.0	·	0.68	i	2.7	6.4
- COc1ccc(C(=O)NC(=S)Nc2ccc(CN3CCOCC3)cc2)cc1Br
  -7.5	5.3	·	0.68	i	-0.1	-0.3
- CC(C)n1ncc2c(C(=O)NCC(=O)Nc3ccccc3Br)cc(C3CC3)nc21
  0.7	·	2%	0.64	·	·	-21
- COCCNC(=O)c1cccc(OC2CCN(C(C)COc3ccccc3)CC2)c1 (stereo unspecified)
  0.8	-2.4	·	0.66	i	7.0	-0.9
- O=C(Nc1ccc(F)cc1)c1cccc(N2C(=O)C3C4C=CC(C5CC45)C3C2=O)c1 (stereo unspecified)
  0.3	-0.4	·	0.68	i	-1.6	5.5
- COCC(C)n1c(C)cc(C(=O)CN2c3cccc4cccc(c34)S2(=O)=O)c1C (stereo unspecified)
  -0.7	4.5	-10%	0.65	i	·	-50
- COCCCNc1nc(N)c([N+](=O)[O-])c(Nc2ccccc2OC)n1
  1.6	0.1	-7%	·	i	1.0	·
- CCOc1ccc(NC(=O)CN(c2ccc(OC)c(OC)c2)S(=O)(=O)c2ccc(C)cc2)cc1
  -0.8	-0.9	·	0.71	i	-3.4	5.7
- O=C(CN1CCN(c2ccccc2Cl)CC1)NC1CCCc2ccccc21 (stereo unspecified)
  0.5	·	·	0.65	·	4.3	3.3
- O=C(Nc1cccc(C(=O)Nc2ccc(Br)cc2)c1)c1ccccc1
  -2.4	-2.3	·	0.66	i	-1.6	2.7
- C=CCn1c(SCC(=O)Nc2ccc3c(c2)CCC3)nnc1-c1cccs1
  1.4	·	-5%	0.72	·	-1.4	-0.6
- CCn1cc(C(=O)N2CCCC(N3CCN(c4ccccc4C)CC3)C2)cn1 (stereo unspecified)
  -3.7	2.3	·	0.67	i	1.7	-1.5
- O=C(COC(=O)Cc1ccccc1F)NNC(=O)c1ccc(Cl)cc1
  -2.3	-1.2	-10%	0.65	i	0.0	4.7
- CC(=O)NC1=NN(C(C)=O)C(c2cccs2)S1 (stereo unspecified)
  2.0	·	?	0.69	·	0.0	0.8
- COc1ccc(Cl)cc1C(=O)OCC(=O)N(CC(C)C)c1c(N)n(Cc2ccccc2)c(=O)[nH]c1=O
  2.7	6.5	·	·	i	1.2	·
- COc1ccccc1N1CCN(CCCn2c(=S)[nH]c3ccccc3c2=O)CC1
  3.2	-14	-2%	0.66	i	-2.5	-1.1
- CCc1ccc2c(c1)[C@H]1OCC[C@H]1[C@@H](c1cccs1)N2
  -1.6	·	-3%	0.7	·	-0.4	5.9
- C=CCNC(=O)/C(C#N)=C/c1c(N2CCN(c3ccccc3)CC2)nc2c(C)cccn2c1=O
  4.4	-0.3	-1%	0.68	i	28*	-77
- O=C1Cc2cccc(=O)c(O)c2C(=O)O1
  -38	-4.3	14µM*	·	i	·	·
- COc1cc2cc(CCCOC(=O)c3ccc(C(F)(F)F)cc3)oc(=O)c2cc1OC
  3.3	0.2	·	0.7	i	·	2.6
- C#CCOCCOCCOCCNc1nc(N2CCN(C(=O)C([C@@H](C)O)n3cc([C@@H](N)CCCCN)nn3)CC2)nc(N2CCN(C(=O)[C@H](CC(N)=O)n3cc(C(N)[C@@H](C)CC)nn3)CC2)n1 (stereo partly specified)
  3.2	21	-3%	0.68	i	·	4.5
- NC(=O)c1ccc(N2CCNC(=O)C2)c([N+](=O)[O-])c1
  -0.1	0.6	·	0.67	i	-0.1	1.0

Following part:
Every second line gives: HNF4A DNA FP	MLL AF4-AF9 inh	Vif A3G	Ecoli growth	FGF22 binding	RanGTP-Impb inh	UCH37 inh
- COc1ccc(C/C(=N\O)c2ccc(OC)cc2)cc1
  -2.1	·	-2%	·	·	?	·
- CCOC(=O)c1nc2cc3n(c(CC(C)C)c-2c1C)CC(C)=C3C
  14	·	33%	0.66	·	-4.3	-208
- CC(C)OCCCNC(=O)c1ccc2c(c1)S(=O)(=O)c1ccccc1C2=O
  1.7	0.3	·	0.72	i	-3.8	-1.1
- Cn1c(N2CCC(C(N)=O)CC2)nc2c1c(=O)n(Cc1ccc(Br)cc1)c(=O)n2C
  2.2	·	4%	0.69	·	2.9	1.6
- CCOC(=O)Nc1sc(C)c(C)c1C(N)=O
  0.8	0.5	·	0.62	i	0.5	1.5
- C/C(=N\NC(=O)c1nnn(-c2nonc2N)c1-c1ccccc1)c1ccco1
  3.1	-0.7	·	·	i	·	·
- O=C(NC(=S)NC1CCCCC1)c1ccccc1
  3.9	2.8	-2%	·	i	1.7	·

Vif A3G: entries above that show a hit.
SMILES	MLL AF4-AF9 inh	Vif A3G	RanGTP-Impb inh	UCH37 inh
O=C1Cc2cccc(=O)c(O)c2C(=O)O1	-4.3	14µM*	·	·

Only part of the results is shown. The share of hits here may be higher or lower than overall.
